E coli growth: inhibitors of Escherichia coli growth. OD600, 23 h; stronger effect = lower value. OD600 absorbance (concentration not given with the values). hit rate 0.21% among 330,000. AID 1053175;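 active means OD600 absorbance below the run mean of sample wells minus 3.6 SD, in any replicate, cut at about 0.56 in these data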;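 further: stock transfer was 300 nL into about 60 µL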
Starred values were filed as active, the others as inactive; & = joins results of further samples.

#	E coli growth	SMILES
1	0.62	[O-][N+](=Cc1ccccc1)c1ccc(Br)cc1
2	0.73&0.72	CCOC(=O)C1C2COc3ccc(Br)cc3C2N2C(=O)N(c3ccc(C(F)(F)F)cc3)C(=O)[C@]12C (stereo partly specified)
3	0.72	Cc1cccc(C=NNC(=O)c2cc(Br)ccc2OCc2ccccc2)n1
4	0.67	O=C(CCCOc1ccc(Cl)cc1Cl)NN=Cc1ccccc1
5	0.78	COC(=O)[C@@]1(Cc2ccc(F)cc2)C2c3cc(C(=O)N(C)C)n(CCc4ccc(OC)c(Br)c4)c3CC2CN1C(=O)c1ccccc1 (stereo partly specified)
6	0.66	Clc1ccc(C(Cc2nc3ccccc3[nH]2)=NNc2ccccc2)cc1
7	0.67	CC(=O)Oc1ccc(C(C)=NN2CCN(Cc3ccc(C)cc3)CC2)cc1
8	0.69	CC(CCc1ccccc1)=NNC(=O)C(=O)NC(C)c1ccccc1 (stereo unspecified)
9	0.74	Cc1ccc(S(=O)(=O)NN=Cc2cccs2)cc1
10	0.72	Cc1ccc(N2CCN(N=Cc3ccncc3)CC2)cc1
11	0.7	COC(=O)C(N)CS (stereo unspecified)
12	0.75	C=CCn1cnc2c(c1=O)c1nc3ccccc3nc1n2N=Cc1cccc(OC)c1OC
13	0.7	Cc1cc(C=NNC(=O)COc2cccc3cccnc23)c(C)n1-c1ccc(Br)cc1
14	0.7	COc1ccc(C2CC(=O)C=C(c3cc(Br)ccc3OC)C2)cc1 (stereo unspecified)
15	0.69&0.68	COC(=O)C(CC(C)C)N(Cc1ccccc1)S(=O)(=O)N(Cc1ccccc1)C(CC(C)C)C(=O)OC (stereo unspecified)
16	0.64	COc1ccc(C=c2sc3n(c2=O)C(c2ccccc2OC)C2=C(N=3)c3ccccc3CC2)cc1O (stereo unspecified)
17	0.68	CC(=NNC(=O)c1cc2c(s1)CCC(C)C2)c1cccnc1 (stereo unspecified)
18	0.69	COc1ccc(C2C=CCN(Cc3ccc(N(C)C)cc3)CC(=O)N2Cc2ccc(F)cc2)cc1 (stereo unspecified)
19	0.64	Cn1c(-c2ccccc2)c(C=NNC(=O)c2cccnc2)c2ccccc21
20	0.75	O=[N+]([O-])c1ccc(Cl)c(C=Nn2c(C3CCCCC3)n[nH]c2=S)c1
21	0.7	COc1cccc(C=NNC(=O)CCNc2n[nH]c(=O)[nH]c2=O)c1OC
22	0.7	CCOC(=O)C1C2COc3ccc(OC)cc3C2N2C(=O)c3ccccc3NC(=O)[C@@]12C (stereo partly specified)
23	0.66	Cc1cc(C)nc(SCc2ccc(C(=O)NN=Cc3ccc(C(=O)O)cc3)cc2)n1
24	0.7	CCN1C(=O)C2C(C1=O)C(c1ccc(Br)cc1)N1C(=O)c3ccccc3NC(=O)C21 (stereo unspecified)
25	0.71	O=C(NN=Cc1cccnc1)c1[nH]ncc1Br

(more compounds)
#	E coli growth	SMILES
26	0.69	CCCCCC(=O)Cc1cc(O)cc2c1C(=O)Oc1cc(O)c(C(=O)O)c(CCCCC)c1O2
27	0.71	CCCCCC(=O)Nc1cccc(C2=NOC3(C2)CC(C(N)=O)N(C(=O)Cc2ccc([N+](=O)[O-])cc2)C3)c1 (stereo unspecified)
28	0.6	CCOc1ccc2ccccc2c1C=NNC(=O)CNC(=O)c1ccccc1O
29	0.64	CCC(=NO)C(C)(C)/[N+]([O-])=C/c1ccc(Br)cc1
30	0.69	COc1ccc(NC(=S)N2CCN(CC=Cc3ccccc3)CC2)cc1
31	0.6	COc1ccc(C=NNC(=O)c2ccc3nc[nH]c3c2)cc1
32	0.74	O=C(NC(=NO)c1ccccc1)Nc1ccc(Cl)cc1
33	0.71	CC12CCC(C(=O)Nc3cc(Cl)ccc3Cl)(CC1=NO)C2(C)C (stereo unspecified)
34	0.67	COc1ccccc1C=NNC(=O)C(C)Cn1cnc2ccccc21 (stereo unspecified)
35	0.63	CC(C)(C)c1ccc2c(c1)OC(C(=O)NN=Cc1ccccn1)CO2 (stereo unspecified)
36	0.64	C(=NNc1nccs1)c1cccnc1
37	0.71	O=C(O)COc1ccccc1C=NNc1ccc(S(=O)(=O)N2CCOCC2)cc1[N+](=O)[O-]
38	0.65&0.65&0.71&0.72&0.71	O=C1OCC2CCCN2C(=O)C(CC(=O)N(CCO)Cc2ccccc2)CC=CCCC1Cc1ccc(F)cc1 (stereo unspecified)
39	0.72	CC(=NNC(=O)C1COc2ccccc2O1)c1ccc(Cl)s1 (stereo unspecified)
40	0.63	COc1ccc(C=NNC(=O)c2ccc(Br)cc2)cc1CN1CCOCC1
41	0.7	Cc1ccccc1N(CC(=O)NN=Cc1ccc(F)cc1)C(=O)c1ccccc1
42	0.69	N#CC(=Cc1cccs1)C(=O)Nc1nccs1
43	0.67	COc1ccc(C=NNc2nnc(C)n2N)cc1OC(C)=O
44	0.66	CC(=NOc1nc(C)cc(C)n1)c1ccc(Cl)cc1Cl
45	0.69	Cc1cc(C=Nn2cnnc2)c(C)n1-c1cccc(Cl)c1
46	0.7	CC(=NNC(=O)C1CC1c1ccccc1)c1ccc(C)s1 (stereo unspecified)
47	0.66	CC(=NO)C(C)Oc1ccc(Cl)cc1 (stereo unspecified)
48	0.63	O=C(NN=Cc1ccccc1Cl)C1CC1
49	0.65	O=C(COc1ccccc1)NCC(=O)NN=Cc1ccc(Cl)cc1
50	0.68	CCN1C(=O)C(C)SC1=NS(=O)(=O)c1ccc(F)cc1 (stereo unspecified)

3 of the compounds above, field by field.
#28 CCOc1ccc2ccccc2c1C=NNC(=O)CNC(=O)c1ccccc1O
- E coli growth: 0.6
#43 COc1ccc(C=NNc2nnc(C)n2N)cc1OC(C)=O
- E coli growth: 0.67
#34 COc1ccccc1C=NNC(=O)C(C)Cn1cnc2ccccc21 (stereo unspecified)
- E coli growth: 0.67

Next structures:
#	E coli growth	SMILES
51	0.59	Oc1ccc(C=NNC(=S)Nc2cccnc2)c(O)c1
52	0.68	O=c1c(=Cc2ccccc2)sc2nnc(-c3cccs3)n12
53	0.65	O=C(COc1ccccc1[N+](=O)[O-])NN=Cc1ccc(O)cc1
54	0.69	COc1cc(C=NOCC(=O)Nc2ccc(OC(F)F)cc2)ccc1OCc1ccccc1
55	0.68	COc1cc(N2CN=c3sc(=Cc4ccccn4)c(=O)n3C2)cc(OC)c1OC
56	0.84	O=C1C(Cc2ccccc2)SC(=NN=Cc2ccco2)N1c1ccccc1 (stereo unspecified)
57	0.73	Cc1[nH]c2ccccc2c1C=NNC(=O)C1CC1(c1ccccc1)c1ccccc1 (stereo unspecified)
58	0.75	COC(=O)C(Cc1ccccc1)NC(=O)OC1C(=O)c2cc(Br)ccc2OC1c1cccc(OC)c1 (stereo unspecified)
59	0.69	Fc1ccc(NN=C2CC(c3ccccc3)Oc3ccccc32)c(F)c1 (stereo unspecified)
60	0.7	CC(CC(=O)Nc1cc(C)ccn1)=NNC(=O)c1ccc(C(C)(C)C)cc1
61	0.69	CC(=NNc1ccc([N+](=O)[O-])cc1)c1ccco1
62	0.62	NC(=NN=Cc1ccc2c(c1)OCO2)c1nonc1N
63	0.67	Oc1ccc(C=NN2CCN(c3ccccn3)CC2)cc1
64	0.68	O=C1CCCCCCCCCCC(=NO)CCCO1
65	0.72	O=C(O)c1ccc(C=NNc2nc3ccccc3[nH]2)cc1
66	0.69	O=c1c(C=NOCc2ccc(Cl)cc2Cl)c[nH]n1-c1cccc(Cl)n1
67	0.71	Fc1ccc(C=NNC(=S)NCCc2ccccc2)cc1F
68	0.7	COC(=O)C(=NNc1ccccc1C)Sc1nnc(C(O)c2ccccc2)n1-c1ccccc1 (stereo unspecified)
69	0.69	CC(C)CC1CN=C(Nc2ccccc2)N1CC1CCC1 (stereo unspecified)
70	0.73	CCOC(=O)C1C2COc3ccc(OC)cc3C2N2C(=O)CN(Cc3ccc(F)cc3)C(=O)[C@@]12C (stereo partly specified)
71	0.7&0.65	CCSc1ccc(C2C3C(=O)N(CC)C(=O)C3[C@]3(C(=O)OC)CCCCN23)cc1OC (stereo partly specified)
72	0.64	CC1C(=O)NN=C1C(=O)NN=Cc1ccco1 (stereo unspecified)
73	0.68	CCOc1c(Cl)cc(C=NNC(N)=S)cc1OC
74	0.63	Oc1ccccc1C=NN1CCCCC1
75	0.66	COc1ccc(C(=O)NCC(=O)NN=Cc2cccc(OC(=O)c3ccco3)c2)cc1OC

Going on with the list:
#	E coli growth	SMILES
76	0.65	O=C(NN=Cc1cccnc1)c1ccc2c(c1)OCCO2
77	0.69	Clc1ccc(CN2CCN(N=Cc3cccnc3)CC2)cc1
78	0.73	O=[N+]([O-])c1cc(-c2ccc(C=Nc3nc4ccccn4c3-c3ccco3)o2)ccc1Cl
79	0.65	COc1cc(C(C)=NN2CCOCC2)cc(OC)c1OC
80	0.74	Cc1ccc(NC(=S)N=C(N)Nc2nc(C)c3cc(C)ccc3n2)c(C)c1
81	0.66	COc1ccc(CC2c3cc(O)c(OC)cc3CC[N+]2(C)[O-])cc1O (stereo unspecified)
82	0.69	O=C(NC(Cc1ccccc1)C(=O)O)C(=Cc1ccc(F)cc1)NC(=O)c1ccccc1 (stereo unspecified)
83	0.71	CCN(C(=O)CON=Cc1ccc(OC)cc1OC)c1c(N)n(Cc2ccccc2)c(=O)[nH]c1=O
84	0.67	COc1ccc(CNC(=O)CC2C(=O)N(Cc3ccccc3)CC2Cc2ccccc2)cc1 (stereo unspecified)
85	0.65	CC(C)CC1CN=C(Nc2ccccc2)N1CCCC1CCCC1 (stereo unspecified)
86	0.57	O=C(NN=Cc1ccc(O)c(O)c1O)/C(=C/c1ccc([N+](=O)[O-])cc1)NC(=O)c1ccccc1
87	0.7	Cc1nc(NN=Cc2ccc3c(c2)OCO3)sc1C
88	0.7	CC(=NOCc1ccccc1)c1c(O)cc(C(C)C)n(-c2ccccc2)c1=O
89	0.66	O=C(NN=Cc1ccc(COc2ccc(Br)cc2)o1)c1ccc2c(c1)OCO2
90	0.66	O=C(O)c1ccc(C=NNc2nnnn2-c2ccccc2)cc1
91	0.69	COc1cc(C=NNC(=O)c2ccc(-c3ccccc3)cc2)cc(OC)c1O
92	0.7	C=C1C(O)CC(C(C)C)N(CC(C)C)S1(=O)=O (stereo unspecified)
93	0.68	COC(=O)C1C[C@]2(Br)c3ccccc3N(S(=O)(=O)c3ccccc3)C2N1C(=O)OC (stereo partly specified)
94	0.62	O=C(NN=C/C(Br)=C/c1ccccc1)c1n[nH]c2c1CCC2
95	0.67	CS(=O)(=O)ON=C1CCCCC1c1ccc([N+](=O)[O-])cc1[N+](=O)[O-] (stereo unspecified)
96	0.71	CC1(C)Cc2c(sc(N=CN3CCCCC3)c2C#N)C(C)(C)N1
97	0.7	CC(C)(C)OC(=O)NCCCCC(C(=O)N1CCN(C(=O)OC(C)(C)C)CC1)n1cc(CCC(=O)O)nn1 (stereo unspecified)
98	0.66	NC(=NN=Cc1ccnc2ccccc12)SC1CC(=O)N(c2ccc(Br)cc2)C1=O (stereo unspecified)
99	0.68	CC(Cc1ccccc1)C(=O)NC(CO)Cc1ccccc1 (stereo unspecified)
100	0.71	CC(=N/N=C1/NC(=O)C(CC(=O)Nc2ccc(C)c(Cl)c2)S1)C(C)C (stereo unspecified)

Laid out differently: results already given
#90 O=C(O)c1ccc(C=NNc2nnnn2-c2ccccc2)cc1
  E coli growth: 0.66

#76 O=C(NN=Cc1cccnc1)c1ccc2c(c1)OCCO2
  E coli growth: 0.65

#87 Cc1nc(NN=Cc2ccc3c(c2)OCO3)sc1C
  E coli growth: 0.7

#84 COc1ccc(CNC(=O)CC2C(=O)N(Cc3ccccc3)CC2Cc2ccccc2)cc1 (stereo unspecified)
  E coli growth: 0.67

(list continues)
#	E coli growth	SMILES
101	0.69	O=C(CC1=NNC(=O)C1)NN=Cc1ccccc1[N+](=O)[O-]
102	0.68	O=C(C(=NNc1ccccc1)Sc1nnnn1-c1ccccc1)c1ccccc1
103	0.66	CC(=NNc1nc2ccccc2s1)c1cccs1
104	0.66&0.67	CCOC1OC(C(=O)N2CCN(Cc3ccc4c(c3)OCO4)CC2)=CC(c2cn(C(C)=O)c3ccccc23)C1CCCO (stereo unspecified)
105	0.66	COc1cc(C=NN2C(=O)C3C4c5ccccc5C(c5ccccc54)C3C2=O)ccc1O (stereo unspecified)
106	0.67	CSc1nnc(C(C)(C)C)c(=O)n1N=Cc1c(O)ccc2ccccc12
107	0.72	CCN(CC)c1ccc(C=NNS(=O)(=O)c2ccc(C)c([N+](=O)[O-])c2)cc1
108	0.67&0.7	CC(C)(C)OC(=O)NC(C(=O)OC(C)(C)C)c1ccccc1 (stereo unspecified)
109	0.68	CC(Cc1ccccc1)=NNC(=O)c1ccccn1
110	0.7	Cn1c(SCC(=O)NN=C/C=C/c2ccco2)nc2ccccc21
111	0.69	CC(=NNC(=O)c1ccc2c(c1)OCO2)c1cccc(NC(=O)C(C)(C)C)c1
112	0.68	Nc1c(Cl)ncnc1NN=Cc1ccncc1
113	0.66	Fc1cccc(C=NNc2ccccn2)c1
114	0.72	Cc1ccc(C=C2CCC(C3CCCC3)C2=O)cc1 (stereo unspecified)
115	0.66	COc1cc(C=Nn2c(C3CCCCC3)n[nH]c2=S)cc(Br)c1O
116	0.6	CC(=NNC(=O)Cc1ccc(Cl)cc1)c1ccccn1
117	0.7	C=C1CCN(C(C)C(=O)NCc2cc(OC)c(OC)c(OC)c2)S(=O)(=O)c2ccccc21 (stereo unspecified)
118	0.69	Cc1ccc2[nH]c(C(=O)NN=Cc3ccccc3C(=O)O)c(-c3ccccc3)c2c1
119	0.69	O=C1c2ccccc2C(=O)N1N=Cc1ccc(O)c(O)c1
120	0.75	Cc1sc(NN=Cc2cccs2)nc1-c1ccccc1
121	0.69&0.68	CCOC1OC(C(=O)N2CCN(C)CC2)=CC(c2csc3ccccc23)C1CCCO (stereo unspecified)
122	0.68	CC(=NNS(=O)(=O)c1ccc(Br)cc1)c1cccs1
123	0.65	ON=Cc1ccccc1OCc1ccc(Cl)cc1
124	0.73	NC(=NOC(=O)CCC(=O)O)c1ncc(C(F)(F)F)cc1Cl
125	0.71	CC(CC(=O)Nc1ccc2c(c1)OCCO2)=NNC(=O)c1ccccn1

In another format: entries from further up.
[105] COc1cc(C=NN2C(=O)C3C4c5ccccc5C(c5ccccc54)C3C2=O)ccc1O (stereo unspecified)
  E coli growth: 0.66

[106] CSc1nnc(C(C)(C)C)c(=O)n1N=Cc1c(O)ccc2ccccc12
  E coli growth: 0.67

[107] CCN(CC)c1ccc(C=NNS(=O)(=O)c2ccc(C)c([N+](=O)[O-])c2)cc1
  E coli growth: 0.72

The list is partial. The share of hits here may be higher or lower than overall.
